Screening data: PubChem BioAssay, National Center for Advancing Translational Sciences (NCATS)
TRPV1 potentiator = HTS Assay for Compounds that Act as Potentiators of the Vanilloid Receptor 1; 320,000 compounds, 0.02% hits; potentiation, % at 8.33 µM; Transient receptor potential cation channel subfamily V member 1 (Homo sapiens), Q8NER1; TRPV1-expressing cells, Fluo-8 calcium influx, capsaicin EC20 potentiation; host cell line not named in the record; control for the full effect not named in the record; AID 540277, 2011; active means potentiation above 80%; inconclusive means 30% to 80%; inactive means below 30%; note: 0% is about no effect
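Cells expressing TRPV1 were dye-loaded with Fluo-8 and read kinetically: 10 s baseline, 3 min after compound (agonist portion), then 2 min after EC20 capsaicin (allosteric enhancer portion). Calcium-bound dye fluorescence at 480/520 nm.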
Sfp inh = qHTS Assay for Inhibitors of Bacillus subtilis Sfp phosphopantetheinyl transferase (PPTase) | 4'-phosphopantetheinyl transferase ffp (Bacillus subtilis), Q9F4F7 | Potency, µM, for inactives: max response, negative = inhibition, actives largely listed as inhibitors | Biochemical Sfp PPTase activity, qHTS | AID 1490, 2009 | 310,000 compounds, 3.5% hits; active = well fitted inhibition curve with a large enough effect; inconclusive = small, poorly fitted or top-dose-only effect, or another doubt; inactive = no such curve, though single readings can be large or run the other way;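 note: the enzyme is Sfp with the accession as filed and its product quenches rhodamine fluorescence; potency is the fitted concentration of half-maximal effect; 0% = enzyme reaction without inhibitor and -100% = no enzyme wells; top concentration of the series not given in the record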
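With Hepes-Na pH 7.6 buffer containing 10 mM MgCl2, Sfp (15 nM) modified BHQ-2-YbbR (12.5 uM) using rhodamine-CoA (5 uM). Two reads 30 minutes apart at 525/598 nm yielded each well's rate.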
CtBP-E1A inh = qHTS Assay for Inhibitors of the CtBP/E1A Interaction; activity change, % (no concentration beside the values); AlphaScreen GST-E1A/His-CtBP binding, 1536-well; stronger effect = lower value; control for the full effect not named in the record; AID 651724, 2012; CtBP / adenovirus E1A interaction (AlphaScreen); 340,000 compounds, 0.49% hits; in the data active means activity change below about -65%; inconclusive means about -30% to -65%; inactive means above about -30%; note: % is set by controls: 0 for no effect and ±100 for the full control effect
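GST-E1A and His-tagged CtBP (125 nM each as 5X stock) were preincubated with pin-transferred compound for 2 h at 37 °C in the dark, then glutathione donor and nickel acceptor beads were added for 1 h before AlphaScreen reading.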
D2 agonist = Beta-Arrestin HTS for Positive Allosteric Modulators of the Human D2 Dopamine Receptor: Agonists | D(2) dopamine receptor (Homo sapiens), P14416 | DiscoveRx PathHunter D2 beta-arrestin, luminescence, 90 min; 100% = 57 uM dopamine signal | activation, % (concentration not given with the values) | 360,000 compounds, 0.084% hits | AID 624465, 2012; in the data active = activation above about 40%; inconclusive = about 15% to 40%; inactive = below about 15%; note: the text of the record calls up to 30% inactive
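DiscoveRx PathHunter D2 beta-arrestin cells (2,100/well) attached overnight, then compound-stimulated 90 min at 37 C in HBSS/10 mM HEPES/0.1% Tween-20 buffer; beta-galactosidase complementation read by luminescence after 1 h at ambient temperature. Dopamine 57 uM final (EC100) as control.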
Six1-Eya2 inh = qHTS Assay for Inhibitors of the Six1/Eya2 Interaction; Homeobox protein SIX1 (Homo sapiens) + Protein phosphatase EYA2 (Homo sapiens), …; AlphaScreen GST-Six1/His-Eya2 binding, biochemical; stronger effect = lower value; control for the full effect not named in the record; activity change, % (concentration not given with the values); 360,000 compounds, 0.56% hits; in the data active = activity change below about -65%; inconclusive = about -30% to -65%; inactive = above about -30%; note: % is set by controls: 0 for no effect and ±100 for the full control effect
Target sequence (O00167 whole entry, looked up): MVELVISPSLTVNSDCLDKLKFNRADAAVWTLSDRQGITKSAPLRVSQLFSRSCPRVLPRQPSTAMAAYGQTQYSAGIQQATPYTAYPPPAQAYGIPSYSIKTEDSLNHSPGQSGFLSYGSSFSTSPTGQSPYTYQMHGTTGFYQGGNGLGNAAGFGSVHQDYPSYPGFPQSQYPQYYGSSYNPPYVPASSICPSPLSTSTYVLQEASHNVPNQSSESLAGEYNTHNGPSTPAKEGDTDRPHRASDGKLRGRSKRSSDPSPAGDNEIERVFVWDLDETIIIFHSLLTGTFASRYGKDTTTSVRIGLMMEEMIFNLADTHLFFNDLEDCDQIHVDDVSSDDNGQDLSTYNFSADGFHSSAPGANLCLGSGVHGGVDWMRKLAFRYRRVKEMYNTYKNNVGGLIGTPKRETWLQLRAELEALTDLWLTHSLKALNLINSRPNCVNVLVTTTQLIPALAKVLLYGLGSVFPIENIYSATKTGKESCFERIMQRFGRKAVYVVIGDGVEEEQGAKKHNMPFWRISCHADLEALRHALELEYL
Target sequence (Q15475 whole entry, looked up): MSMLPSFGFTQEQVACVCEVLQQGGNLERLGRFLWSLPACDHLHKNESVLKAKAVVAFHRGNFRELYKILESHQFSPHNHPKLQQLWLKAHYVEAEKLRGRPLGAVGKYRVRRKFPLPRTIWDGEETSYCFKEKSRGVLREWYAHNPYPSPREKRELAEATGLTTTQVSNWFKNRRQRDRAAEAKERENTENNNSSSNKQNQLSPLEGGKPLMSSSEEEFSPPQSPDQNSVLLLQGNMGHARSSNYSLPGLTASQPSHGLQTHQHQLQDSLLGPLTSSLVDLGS
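AlphaScreen luminescence read after one hour at 37 °C in darkness. Pin-transferred compounds met GST-Six1 and His-Eya2 protein (5X stock 250 nM/500 nM) plus glutathione donor and Ni-chelate acceptor beads (5X, 50 ug/mL).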
PINK1 modulator = A Quantitative High throughput Screen to Identify Chemical Modulators of PINK1 Expression; 410,000 compounds, 0.2% hits; AID 624263, 2012; Potency, µM (top dose mostly 76.6 µM), for the others: top-dose activation (PINK1 increase), most hits filed as activators; PINK1 immunofluorescence, high-content cytometry, 24 h; active = well fitted activation curve with a large enough effect; inconclusive = small, poorly fitted or top-dose-only effect; inactive = flat fitted curve, though single readings scatter; cell line not stated here;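 note: potency is the fitted concentration of half-maximal effect; % of control where 0% means no effect; nearly all actives have a fitted effect of over 65% in size; a mitochondrial uncoupler was the plate control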
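Fluorescence from anti-PINK1 antibody, together with nuclear and cell stains, was scanned on a laser-scanning cytometer. Before staining, stable-line cells were incubated 24 hours with compounds at 5 concentrations; primary antibody 12 h at 10 degrees C.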
D2 potentiator = Beta-Arrestin HTS for Positive Allosteric Modulators of the Human D2 Dopamine Receptor: Potentiators; potentiation, % (concentration not given with the values); DiscoveRx D2 beta-arrestin cells, luminescence, 90 min; 100% = 57 uM dopamine signal; 360,000 compounds, 0.23% hits; D(2) dopamine receptor (Homo sapiens), P14416; AID 624464, 2012; active = potentiation of 50% or more; inconclusive = 30% to 50%; inactive = 30% or less;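 note: tested on top of an EC20 dose of dopamine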
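PathHunter beta-arrestin assay in DiscoveRx D2 cells. Compounds were added with an EC20 of dopamine (50 nM final) for 90 min at 37 deg C. Luminescence was read 1 h after detection reagent, with 57 uM dopamine as the EC100 control.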
Starred values were filed as active, the others as inactive; ? = inconclusive; . = no result given; & = joins results of further samples; [ ] = dose if it differs, or a comment.

SMILES	TRPV1 potentiator	Sfp inh	CtBP-E1A inh	D2 agonist	Six1-Eya2 inh	PINK1 modulator	D2 potentiator
O=C(O)CCN1C(=O)C2C3c4ccccc4C(c4ccccc43)[C@@H]2C1=O (stereo not given in full)	-2	11%	-5	-5.0	0	0.4%	-12
COc1cc(OC)cc(-c2c(-c3ccc(F)cc3)c3cc(-c4ccc5c(c4)OCCO5)ccc3n2C)c1	.	.	-10	-0.5	-14	2.8%	-7
CCCCNC(=O)N(O)C1N(/N=C/c2ccccc2F)C(=S)SC1(C)C (stereo not given)	7	9%	-1	-4.8	-7	0.7%	-10
CC(C)C(NS(=O)(=O)c1ccccc1)C(=O)N1CCCC1 (stereo not given)	-3	6%	1	-3.6	-6	-0.9%	-1
O=C(CSc1nnnn1-c1ccccc1)NC(=O)NCc1ccco1	0	-4%	-7	0.4	-6	-3.1%	-5
CC1CN(C(=O)COC(=O)c2cccc(S(=O)(=O)N3CCc4ccccc43)c2)CC(C)O1 (stereo not given)	.	.	-1	-3.1	3	0.4%	-3
CCCc1nc2ccc(Cl)cn2c1Cc1ccccc1	.	.	-9	-7.2	3	-0.1%	-16
O=C(/C=C/c1ccc(Cl)cc1)NCc1ccco1	-13	4%	13	-0.3	-5	16%	-14
CCOc1ccc(C(=O)O/N=C(\N)c2ccc([N+](=O)[O-])cc2)cc1OCC	-2	13%	0	?	2	10.0%	58*
O=C(OCCc1cc2ccccc2c(=O)o1)c1cccs1	-19	.	12	-3.8	-4	0.9%	-6
COCc1ccc(C(=O)N(C)CC2CCCN(CCc3ccc(Cl)cc3)C2)o1 (stereo not given)	21	15%	2	-1.7	-1	-1.8%	-8
COc1cccc(/C=N/NC(=O)C(=O)N2CCCC2)c1O	14	22%	10	-1.3	-89*	-1.4%[38.3 µM]	10
S=C(Nc1cc(Cl)cc(Cl)c1)NC1CCN(Cc2ccccc2)CC1	-5	-1%	-7	-3.0	-10	-1.4%	-26
COc1ccc(CNC(=O)CSC(=S)N2CCCC2)cc1	-8	.	-5	-2.4	8	-0.7%	-28
Cc1ccc(SC[C@H](Cc2ccccc2)N2CC[C@@H](C)CCC2=O)cc1	-23	?	2	-1.6	-5	?	-12
Cc1cc(C(=O)OCC(=O)NC(C)C)c(C)o1	6	17%	3	-0.9	-2	1.1%	-2
COc1ccccc1C1C(C#N)=C(N)Oc2cc(C)n(CCCn3ccnc3)c(=O)c21 (stereo not given)	-16	?	4	-4.7	-1	0.1%	-1
CCOC(=O)Cc1[nH]nc2c1C(c1ccoc1)C(C#N)=C(N)O2 (stereo not given)	-6	-19%	6	-3.2	-3	.	-6
Cc1noc(C)c1NC(=O)Nc1cccc2c1O[C@H](CN(C)C(=O)Nc1ccccc1)[C@@H](C)CN([C@H](C)CO)C2=O	.	.	3	3.1	0	1.6%	7
Cc1ccc(N2CC(C(=O)Nc3ccc(S(=O)(=O)N4CCOCC4)cc3)CC2=O)cc1Cl (stereo not given)	?	.	7	-2.4	6	13%	-16
CNC(=O)n1cc(C)c(-c2cccs2)n1	-5	6%	6	-7.9	12	-0.4%	-7
O=C(c1ccc(F)cc1)N(Cc1ccccc1)C1CCS(=O)(=O)C1 (stereo not given)	-12	1%	-10	-2.8	14	-0.1%	6
COc1cc(OC)c(-c2nc(-c3ccncc3)no2)cc1OC	-9	24%	.	1.5	12	0.3%	20
COc1ccc(NC(=O)c2cccs2)cc1NC(=O)c1ccco1	-17	24%	-1	-3.2	-1	-2.8%	-15
N[C@@H](Cc1ccccc1)C(=O)N1CCC(C(=O)N[C@@H](Cc2c[nH]c3ccccc23)C(=O)O)CC1	4	0%	2	1.3	10	2.6%	-4

The closing 5 compounds of the section above lead into the next:
SMILES	TRPV1 potentiator	Sfp inh	CtBP-E1A inh	D2 agonist	Six1-Eya2 inh	PINK1 modulator	D2 potentiator
CNC(=O)n1cc(C)c(-c2cccs2)n1	-5	6%	6	-7.9	12	-0.4%	-7
O=C(c1ccc(F)cc1)N(Cc1ccccc1)C1CCS(=O)(=O)C1 (stereo not given)	-12	1%	-10	-2.8	14	-0.1%	6
COc1cc(OC)c(-c2nc(-c3ccncc3)no2)cc1OC	-9	24%	.	1.5	12	0.3%	20
COc1ccc(NC(=O)c2cccs2)cc1NC(=O)c1ccco1	-17	24%	-1	-3.2	-1	-2.8%	-15
N[C@@H](Cc1ccccc1)C(=O)N1CCC(C(=O)N[C@@H](Cc2c[nH]c3ccccc23)C(=O)O)CC1	4	0%	2	1.3	10	2.6%	-4
COc1ccc(C(=O)O/N=C(\N)c2ccc(OC)c(OC)c2)c(OC)c1	-1	-4%	.	?	-11	1.2%	15
CC(Sc1ncn[nH]1)C(=O)Nc1ccc(Cl)cn1 (stereo not given)	6	.	7	-0.9	1	-0.8%	10
CSc1ccccc1NC(=O)CN(C)C(=O)C1CC(=O)N(C(C)c2ccccc2)C1 (stereo not given)	-7	.	5	-3.6	-1	0.6%	-14
CSc1ccccc1NC(=S)N/N=C/c1cccn1Cc1ccc(F)cc1	2	37%	0	-2.8	?	2.7%	-10
CCCOC(=O)c1[nH]c2c(c1C)C(=O)CC(c1ccc(OC)c(OC)c1)C2 (stereo not given)	21	0%	1	-3.0	4	8.7%	-3
O=C(COC(=O)c1cc(=O)[nH]c2ccccc12)Nc1nc(-c2ccccc2)cs1	-13	-11%	.	-2.1	-12	-0.7%	-14
CCN1CCN(Cc2ccc(NC(=O)c3cc(NC(=O)c4cc(C)on4)cc(OC)c3)cc2C(F)(F)F)CC1	15	-5%	2&-6	-0.5&1.3	-2&-19	0.4%&-0.7%	-11&-18
Cn1c(=O)c2cc(S(=O)(=O)Nc3cc(C(=O)O)cc(C(=O)O)c3)ccc2n(C)c1=O	4	-5%	.	1.9	-6	-0.5%	-8
COC(=O)CNC(=O)C1(C)C=CCN1C(=O)c1ccccc1 (stereo not given)	-7	35%&24%[activator]	3	-4.5	4	0.4%	-9
O=C(COC(=O)/C=C/c1ccc(S(=O)(=O)N2CCOCC2)cc1)NCc1ccc2c(c1)OCO2	-3	17%	-2	-12	-6	-0.5%	-7
N#CC(c1ccc(O)cc1)N1CCN(C(C#N)c2ccc(O)cc2)CC1 (stereo not given)	.	.	0	1.2	20	0.8%	-11
CCCOc1ccc(C(C)=O)cc1CC(C(=O)OCC)C(=O)OCC	-20	2%	7	-0.7	14	-1.4%	-4
CCOC(=O)N1CCN(C(=O)CNC(=O)c2nn(-c3ccc(OC)cc3)c(=O)c3ccccc23)CC1	12	15%	-2	-0.9	3	-3.4%	15
Cc1ccc2c(c1)C(c1ccc(F)cc1)N(C(=O)c1ccccc1Br)CC(=O)N2 (stereo not given)	-17	-18%	0	4.2	5	-1.9%	11
Brc1cccc(-c2nc3ccc(Br)cn3c2Cc2ccccc2)c1	.	.	7	-0.6	-2	4.8%	1
Cc1cc(C)c(C#N)c(SCC(=O)Nc2cc(C)on2)n1	.	.	-4	-2.8	4	12%	-10
Cc1ccc(-n2c3nc(=O)n(C)c(=O)c-3cc3ccccc32)cc1	8	7%	-8	6.6	-4	4.1%	0
CC1Sc2ccc(S(=O)(=O)CCC(=O)Nc3ccccn3)cc2NC1=O (stereo not given)	-3	7%	-1	1.5	1	-0.7%	-2
CCOC(=O)C1CCN(S(=O)(=O)c2cc(Cl)c(C)cc2OC)CC1	-15	8%	2	3.1	6	-1.0%	-21
O=[N+]([O-])c1cccc(CN2CCN(c3cccc4[nH]ccc34)CC2)c1	-15	0%	-13	-8.0	-29	-0.3%	-27
COc1ccccc1C(=O)NC1CC(C)(C)NC(C)(C)C1	1	10%	5	-4.3	5	-1.3%	-4
O=C(Nc1nccs1)C1CC(=O)N(CCc2ccc(F)cc2)C1 (stereo not given)	-15	8%	-1	-2.4	5	0.1%	-2
Cc1cc(C)cc(Oc2ccc(N)cc2)c1	-15	4%	-19	-2.1	-13	?	-7
CCCCC(=O)N(C)c1c(C)nc2ccc(C(=O)N(C)Cc3ccco3)cn12	.	.	0	-5.6	-3	1.0%	-5
Cc1ccc(C)c(SCC(=O)c2ccc[nH]2)c1	-11	-20%	-1	-1.7	-3	5.5%	-11
CC(=O)Oc1cccc(N2C(=O)c3ccc(C(=O)O)cc3C2=O)c1	-9	22%	6	-3.2	-1	20%[38.3 µM]	-9
COc1ccc(Cn2c(=O)c3cccnc3n(Cc3ccc([N+](=O)[O-])cc3)c2=O)cc1	-14	7%	-17	-1.2	-1	1.7%	-3
CC(=O)N1c2ccc(S(=O)(=O)N3CCC(C(=O)Nc4cccc(F)c4)CC3)cc2CC1C (stereo not given)	29	23%	2	-0.3	-3	1.8%	-25
CSc1cccc(NS(=O)(=O)c2cn(C)cn2)c1	23	-2%	.	0.7	8	-1.2%	-5
N#CCNC1CC(=O)N(c2ccc(F)cc2)C1=O (stereo not given)	-9	?	-1	-2.4	4	-1.2%	-3

A different layout for four compounds above:
Second line of a record: TRPV1 potentiator | Sfp inh | CtBP-E1A inh | D2 agonist | Six1-Eya2 inh | PINK1 modulator | D2 potentiator
> Brc1cccc(-c2nc3ccc(Br)cn3c2Cc2ccccc2)c1
  . | . | 7 | -0.6 | -2 | 4.8% | 1
> Cc1cc(C)c(C#N)c(SCC(=O)Nc2cc(C)on2)n1
  . | . | -4 | -2.8 | 4 | 12% | -10
> Cc1ccc(-n2c3nc(=O)n(C)c(=O)c-3cc3ccccc32)cc1
  8 | 7% | -8 | 6.6 | -4 | 4.1% | 0
> CC1Sc2ccc(S(=O)(=O)CCC(=O)Nc3ccccn3)cc2NC1=O (stereo not given)
  -3 | 7% | -1 | 1.5 | 1 | -0.7% | -2

Random draw from the library; overall some 3.7% were active at least once.
